# AID504770: E. coli YBA685 growth inhibition, screen for V. cholerae RctB inhibitors; E. coli YBA685 rctB-dependent plasmid, OD600 growth, 3 h; stronger effect = lower value; z-score (test concentration not listed); AID 504770; 0.27% of 130,000 active;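 active means z-score under -2 on both plates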;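 further: wells of about 30 µL received 100 nL stock; score is relative to mean and SD of the test wells; the first replicate is given; strong numbers were not always called active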
# CapD inh: CapD enzyme inhibition; purified CapD enzyme, fluorescence intensity read-out; stronger effect = lower value; some hits fall short of the stated cut; z-score (no concentration beside the values); 0.23% of 140,000 active; AID 492967;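 active means z-score under -4 in either of two replicates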;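 further: stock transfer was 100 nL into about 40 µL; score is relative to mean and spread of the plate; one replicate is shown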
# * marks the source's active call; other numbers are inactive results; · = not tested or not shown. A portion of the library. The share of hits here may be higher or lower than overall.
# Below each compound: AID504770	CapD inh
O=C(NCSc1nc2ccccc2o1)C(F)(F)F
    -0.15	-0.93
CC(C)(C)NC(=O)C1N(C2CC2)C(=O)C2C(C(=O)NCc3ccccc3)C3C=CC21O3 (centres undefined)
    -0.35	·
O=C(O)c1cc(C(=O)O)cc(N2C(=O)CSC2=S)c1
    0.75	-1.1
O=C(/C=C/c1ccccc1Cl)Nc1ncn[nH]1
    1.6	-0.43
Cc1sc2c(c1C)CSC(C(=O)NC(C)C)=C2
    -0.4	-1.4
O=C(Cc1cnn(-c2ccccc2)c1)c1ccc(O)c(O)c1O
    0.65	·
COc1ccc(C2Nc3ccccc3C(=O)N2c2ccc(C)cc2)cc1COc1ccccn1 (centres undefined)
    ·	15
N#CC1(C#N)[C@H](c2ccccc2)[C@@H](C(=O)c2ccccc2I)N2c3ccccc3C=C[C@@H]21
    ·	6.3
O=C1CC(Nc2ccc(F)cc2)C(=O)N1Cc1ccccc1 (centres undefined)
    0.8	-0.61
CCCCNC(=O)C1CCN(Cc2cccc(OC)c2O)CC1
    0.05	·
CSc1ccc(S(=O)(=O)Nc2c(C)cc(OCC(=O)N3CCOCC3)cc2C)cc1
    1.3	-0.29
COC(=O)c1c(C)oc2ccc(NS(=O)(=O)c3ccc(Cl)c([N+](=O)[O-])c3)cc12
    ·	-0.54
Cn1cc(NC(=O)N2CCc3ccccc3C2)c2ccccc21
    0.5	·
NC(=O)C[n+]1ccn2c(NC3CCCCC3)c(-c3ccc(N4CCOCC4)cc3)nc2c1
    0.15	-0.41
CCc1c(O)c2ccccc2n(C)c1=O
    0.9	38
CC(c1ccccc1)N1CCC(c2nc3ccccc3[nH]2)CC1 (centres undefined)
    1.8	·
CC(=O)N(CCC#N)c1ccccc1
    -0.25	0.15
O=C(Nc1ccc2nn(-c3cccc4ccccc34)nc2c1)c1ccc2c(c1)OCCO2
    ·	91
COC(=O)c1ccccc1NC(=O)CSc1nc2ccccc2nc1C
    0.25	-0.05
O=c1n(-c2ccc(F)cc2)nc2n1CCCN2
    -0.7	0.08
NC(=O)c1cccc(C(N)=O)c1F
    ·	-0.38
O=C(Cc1csc(NC(=O)Nc2ccc(Cl)cc2)n1)NCc1ccco1
    -0.55	·
O=C(CN1C(=O)c2cccc3cccc1c23)NC1CCCC1
    -0.45	·
N#CC1=C(N)OC2=C(C(=O)CCC2)C1c1ccccc1OC(=O)c1cccc([N+](=O)[O-])c1 (centres undefined)
    ·	1.6
OCCOCCNc1ncnc2c1c(-c1ccccc1)cn2-c1ccc(Br)cc1
    ·	0.02
O=c1c2c([nH]c(=S)n1-c1cccc(Br)c1)-c1ccccc1CC21CCCCC1
    ·	-0.46
CC(C)N(C(=O)Cn1c2ccccc2c2nc3ccccc3nc21)c1ccccc1
    0.05	-0.08
Cc1ccc(SCC(=O)NN=C2CCN(C)CC2)cc1
    -0.25	0.08
CN1CCC(N(C)C(=O)c2cc(Cl)cc(Cl)c2)CC1
    -0.05	0.2
O=C(OCC(=O)N(CC1CCCO1)c1nc(-c2ccc(Br)cc2)cs1)c1ccco1 (centres undefined)
    -0.15	·
CCOC(=O)c1sc2ncn3c(-c4ccc(C)cc4)nnc3c2c1C
    -0.7	-0.12
COc1ccc(NC(C)=O)c(NC(=O)c2c(-c3ccccc3Cl)noc2C)c1
    ·	0.065
O=C(OCCc1c(F)cccc1Cl)N1CCN(c2ncnc3sccc23)CC1
    ·	-0.37
Cc1cc(C(=O)COC(=O)C2CC2C)c(C)n1-c1cccc(S(=O)(=O)N2CCOCC2)c1 (centres undefined)
    -0.5	·
COc1ccc(CCC(=O)c2ccc3c(c2)OCCO3)cc1
    1.1	-0.23
CCCCCCCn1c(=N)n(CC(=O)c2ccco2)c2ccccc21
    -0.9	0.23
O=C(C1CCCCC1)N1CCc2ccccc21
    0.1	·
CC1(C)CC(=O)c2cc(C#N)c(SCSc3nc4c(cc3C#N)C(=O)CC(C)(C)C4)nc2C1
    -1.4	0.7
COc1ccc(NC(=O)CS(=O)c2ccc(Cl)c(Cl)c2)cc1 (centres undefined)
    ·	-0.14
O=C(CN1CCCCC1)Nc1ccc(N2CCN(c3ccccc3)CC2)c(F)c1
    ·	-0.095
COc1ccc(-c2[nH]nc3c2C2(C(=O)Nc4ccc(Br)cc42)C(C#N)=C(N)O3)cc1OC (centres undefined)
    ·	0.09
Cc1c(Br)ccc(OCC(=O)c2ccc(Cl)cc2)c1C
    ·	-0.47
Cc1ccc(-c2csc(/N=C/c3cc(Br)ccc3O)n2)cc1
    1.6	-0.33
Cn1ccc(-c2cccc(NC(=O)Nc3ccccc3)c2)n1
    0.95	-0.73
Cc1ccc(/C(O)=C/C(=O)C(=O)Nc2ccc(S(=O)(=O)N3CCOCC3)cc2)cc1C
    0.25	-0.41
CCn1nnnc1SCC(=O)N1c2ccccc2CCc2ccccc21
    -0.25	·
Cc1ccc(S(=O)(=O)O/N=C(\N)c2ccc(C(F)(F)F)cc2)cc1
    ·	0.09
O=c1/c(=C/c2ccc(Cl)cc2)sc2nnc(-c3ccccc3Cl)n12
    ·	3.1
O=C(OCN1C(=O)c2ccccc2C1=O)C1CCCN1S(=O)(=O)c1ccc(Cl)cc1 (centres undefined)
    0.25	·
O=C(COC(=O)/C=C/c1ccco1)Nc1nc(-c2ccccc2)cs1
    2.5	·

# More entries
# Below each compound: AID504770	CapD inh
COCCn1c(SCC(=O)NN2C(=O)NC(C)(c3ccccc3)C2=O)nc2ccccc21 (centres undefined)
    0	·
O=C(Cn1nnc(-c2cccc([N+](=O)[O-])c2)n1)NNC(=O)OCc1cccc(OCc2ccccc2)c1
    ·	0.11
COc1ccc(NCc2ccc3c(c2)OCO3)cc1
    0.55	·
COc1nc(C)c(Br)c(C)c1C#N
    2.1	-0.39
Cn1c(SC/C([O-])=c2/sc3n(c2=O)c2ccccc2[n+]3C)nc2ccccc21
    0	·
CC(=O)N1c2ccc(S(=O)(=O)N3CCCC3C(=O)Nc3cccc(C)n3)cc2CC1C (centres undefined)
    -0.5	0.14
O=C(O)C1CCCCC1C(=O)NC1CCCCC1 (centres undefined)
    0.95	-0.065
Cn1cc(C(=O)N/N=C/c2ccc3ncccc3c2)ccc1=O
    0	·
CCOC(=O)Cn1nc(-c2ccccc2)ccc1=O
    0.5	2.3
CCn1c(=O)cc(SCC(=O)N(C)Cc2ccccc2)c2ccccc21
    1.2	-0.21
O=C(c1ccc(S(=O)(=O)N2CCCC2)cc1)N1CCC(CN2C(=O)c3cccc4cccc(c34)C2=O)CC1
    ·	24
O=C(Nc1cccc(C(F)(F)F)c1)C1CCN(S(=O)(=O)c2ccccc2)CC1
    0.05	0.41
CCc1ccc(NC(=O)CSc2ccc3nnc(-c4ccccn4)n3n2)cc1
    1.3	0.095
COCCN(CCOC)S(=O)(=O)c1ccc(C(=O)Nc2nc3ccc(Br)cc3s2)cc1
    ·	1.1
CS(=O)(=O)N(CC(=O)O)c1ccc(Cl)cc1
    0.65	·
COC(=O)C1=C(C(=O)OC)SC2(S1)C(C(=O)OC)=C(C(=O)OC)SC1=C2c2cc(C)cc(C)c2N(C(=O)Cc2ccccc2)C1(C)C
    ·	-0.19
Cc1cc(C)cc(-n2ccn3c(CCCC(=O)O)nnc3c2=O)c1
    1.1	-0.43
O=C(N/N=C/c1ccc(Oc2ccccc2)cc1)c1cccnc1
    ·	-0.9
CC(C(=O)NCCCc1ccccc1)N1C(=O)C2CC=CCC2C1=O (centres undefined)
    0.15	·
Cc1cc(C)c2c(-n3cccc3)c(NC(=O)OCc3ccccc3)sc2n1
    ·	-0.74

# Ordered by count of non-hydrogen atoms (lowest first): some entries from above.
# Below each compound: AID504770	CapD inh
CS(=O)(=O)N(CC(=O)O)c1ccc(Cl)cc1
    0.65	·
O=C(N/N=C/c1ccc(Oc2ccccc2)cc1)c1cccnc1
    ·	-0.9
CC(C(=O)NCCCc1ccccc1)N1C(=O)C2CC=CCC2C1=O (centres undefined)
    0.15	·
CCc1ccc(NC(=O)CSc2ccc3nnc(-c4ccccn4)n3n2)cc1
    1.3	0.095
COCCN(CCOC)S(=O)(=O)c1ccc(C(=O)Nc2nc3ccc(Br)cc3s2)cc1
    ·	1.1

# Next results
# Below each compound: AID504770	CapD inh
CCOc1cc(C(=O)Nc2cccc3c2C(=O)c2ccccc2C3=O)cc(OCC)c1OCC
    ·	0.98
CCC(c1nnc(SCc2nnc(-c3ccccc3)o2)n1Cc1ccccc1)N(C)C (centres undefined)
    -0.1	·
COc1cc(C)c(C)cc1S(=O)(=O)NC1CC(C)(C)NC(C)(C)C1
    0.1	-0.18
Cc1nc(C)c2c(c1C(F)(F)F)-c1ccccc1C2(F)F
    3.2	·
Cc1nc2ccc(S(=O)(=O)NCC(=O)O)cc2s1
    -0.95	·
S=c1nc(-c2ccccc2)n(-c2ccc(Br)cc2)c2c1CCCC2
    -0.45	-0.29
Cc1ccc(OS(=O)(=O)c2ccc(C#N)cc2)c(Br)c1
    ·	0.32
O=c1c2ccccc2nc(-c2ccncc2)n1-c1ccc(Cl)cc1
    1.9	19
Cc1cc(=O)n2c(n1)NC(=NCc1ccccc1)NC2c1cccnc1 (centres undefined)
    -0.65	·
N#Cc1ccccc1NC(=O)CSc1ccccc1
    -0.2	0.075
CCC(CO)NCC(O)Cn1c2ccc(Cl)cc2c2cc(Cl)ccc21 (centres undefined)
    ·	0.67
O=C(Nc1cc(C(F)(F)F)ccc1N1CCCCC1)c1sc2ccccc2c1Cl
    ·	0.66
COc1ccc(OCC(=O)N2CCN(S(=O)(=O)c3ccc(OC)cc3)CC2)cc1
    -0.55	3.8
CC(C)CC(C(=O)O)N1C(=O)C2C3C=CC(C3)C2C1=O (centres undefined)
    -0.25	-0.65
Nc1ccc(C(=O)Oc2ccc(Oc3ccccc3)cc2)cc1
    0.55	0.51
CCOC(=O)c1sc2nc(SCc3cc(F)cc4c3OCOC4)n(Cc3ccco3)c(=O)c2c1C
    ·	0.24
CCOC(=O)Nc1ccc2c(c1)N(C(=O)OC)c1ccccc1CC2
    ·	-0.28
COC(=C(C#N)C#N)c1c(-c2ccccc2Cl)noc1C
    -0.7	1.4
C=CCn1c(SCC(=O)c2ccc(OC)cc2)nc2sc(CC)cc2c1=O
    ·	-0.27
COC(=O)c1c(C)oc2ccc(N(C(=O)c3c(OC)cccc3OC)S(=O)(=O)c3cccc([N+](=O)[O-])c3)cc12
    ·	-0.42
CCS(=O)(=O)N1CCC(C(=O)NCCCN2CCN(c3ccccc3F)CC2)CC1
    -0.45	-0.3
CSC(SC)=C(C#N)S(C)(=O)=O
    -1.1	-1.8
COc1cccc(CNC(=O)CCc2nc3ccccc3n2C)c1
    ·	0.2
O=C(O)Cn1c(SCCOc2ccc(Cl)cc2)nc2ccccc21
    ·	0.035
CNc1ccc(Cl)cc1C(=O)NN
    ·	72
O=[N+]([O-])c1cccc(N=Cc2sc3ccccc3c2O)c1
    ·	0.83
Cc1ccc(C(=O)c2cnc3cc4c(cc3c2S(=O)(=O)c2ccccc2)OCO4)cc1C
    -0.45	6.7
CCCC(CCC)n1[nH]c(=O)c2c(C)cc(C)nc21
    -0.15	-0.015
Cc1ccc(-c2nc(C(=O)N3CCN(Cc4ccccc4)CC3)c3n2CCCCC3)cc1
    -1.1	0.41
COc1cc(NC(=S)NC(=O)c2ccccc2)c(OC)cc1Cl
    ·	-0.62
COc1ccc(C2Oc3c(OC)cccc3C3CC(c4ccc(F)cc4)=NN32)cc1OC (centres undefined)
    ·	-0.52
COc1ccc(C(=O)COC(=O)c2cccc(-n3cnnn3)c2)c(OC)c1
    -1.6	·
Cc1ccc(C(=O)c2sc3[nH]c(=O)c(C(=O)O)cc3c2N)cc1
    0.15	·
COC(=O)C(C)SCC(=O)Nc1c(C)cccc1C (centres undefined)
    ·	0.47
Cc1cc(S(=O)(=O)N2CCc3ccccc3C2CN2C(=O)c3ccccc3C2=O)ccc1F (centres undefined)
    ·	-0.45
O=C(NC1CCCC1)c1cccc(S(=O)(=O)Nc2ccccc2F)c1
    -0.95	-0.32
CCn1c(SCC(=O)N2CCc3ccccc32)nc2cc(S(=O)(=O)N3CCCCC3)ccc21
    0.65	·
CN1C=C/C(=C/C=C/C=Nc2cc(C(C)(C)C)cc(C(C)(C)C)c2)c2ccccc21
    ·	0.13
COc1ccc(/C=C/C(=O)NCC2(c3ccccc3)CCCC2)cc1OC
    ·	4.2
O=S(=O)(Nn1cnnc1)c1ccccc1
    -0.8	-0.49
CCN1C(=O)CS/C1=C(/C#N)C(N)=O
    -0.65	·
c1ccc(-c2cnsc2-c2ccccc2)cc1
    -0.5	-0.53
COc1ccc(-n2nc(C(=O)NCCCN3CCCC3=O)c3c4ccccc4n(C)c3c2=O)cc1Cl
    0.6	-0.35
COc1ccc2nc3sc(C(=O)N4CCCC4)cc3cc2c1
    -0.05	0.45
CCN(CC)c1ccc(C2C3=C(CC(C)(C)CC3=O)OC3=C2C(=O)CC(C)(C)C3)c(O)c1
    ·	-0.77
COc1ccccc1C1(CC#N)CCOC(C)(C)C1 (centres undefined)
    -0.35	-0.41
CC1CC(Nc2ccccc2)c2ccccc2N1C(=O)c1ccco1 (centres undefined)
    -0.05	0.33
N=C(N)SCc1csc(N)n1
    -0.45	-0.11
Nc1ccc(CCc2nc3cc(N)ccc3o2)cc1
    -0.05	7.1
COc1cc2c(cc1OC)CN(C(=O)c1ccc(Cl)c(S(=O)(=O)NCc3ccco3)c1)CC2
    1.4	·
NC(=O)CSc1nc(N)cc(=O)[nH]1
    -0.6	-0.16
O=C(CCC(=O)N1CCc2ccccc21)Nc1ccc(I)cc1
    1.1	-0.74

# Screening results from PubChem BioAssay.
